# Bfl-1 A1 inh = inhibitors of the anti-apoptotic protein A1, read as caspase activation | MEF A1-2A-BIM cells, Caspase-Glo 3/7 luminescence, 3 h; percent of clofoctol response, vehicle zero | caspase activation, % (no concentration beside the values) | actives 0.066% (n = 330,000) | AID 2462;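 active means over half of replicate activation scores above 10%, or exactly half above 10 with the replicate mean above 10; inconclusive means replicate mean below 10 yet half the replicates above 10; inactive means over half of replicates below 10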;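 further: wells of about 30 µL received 50 nL stock; many hits fall short of the cut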
# LANA-H2A inh = blocks KSHV LANA binding to histone H2A/H2B | inhibition, % (no concentration beside the values) | actives 0.6% (n = 320,000) | cell-free LANA-H2A/H2B peptide, fluorescence polarization | Q9QR71 | AID 2629; in the data active means inhibition mostly above about 10%, no sharp cut-off; inactive means mostly below about 6.7%;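 further: stock transfer was 7.5 nL into about 10 µL; 0% = median of vehicle wells and 100% = median of positive control wells; one replicate is shown; the record names a cut of 25% in any replicate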
# Beta2AR agonist = agonists of human beta-2 adrenergic receptor inducing internalization | Am2.2-beta2AR cells, FAP receptor internalization, flow cytometry; reference of the scale not given here | response, % (no concentration beside the values) | actives 0.43% (n = 340,000) | AID 504454;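 active means response above a set limit, near 3 SD of response in nonfluorescent compounds, cut at about 42% in these data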;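 further: stock transfer was 100 nL into about 11 µL; a reference agonist was the positive control; negative values mostly stem from fluorescent compounds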
# Target sequence (P07550 whole entry, looked up): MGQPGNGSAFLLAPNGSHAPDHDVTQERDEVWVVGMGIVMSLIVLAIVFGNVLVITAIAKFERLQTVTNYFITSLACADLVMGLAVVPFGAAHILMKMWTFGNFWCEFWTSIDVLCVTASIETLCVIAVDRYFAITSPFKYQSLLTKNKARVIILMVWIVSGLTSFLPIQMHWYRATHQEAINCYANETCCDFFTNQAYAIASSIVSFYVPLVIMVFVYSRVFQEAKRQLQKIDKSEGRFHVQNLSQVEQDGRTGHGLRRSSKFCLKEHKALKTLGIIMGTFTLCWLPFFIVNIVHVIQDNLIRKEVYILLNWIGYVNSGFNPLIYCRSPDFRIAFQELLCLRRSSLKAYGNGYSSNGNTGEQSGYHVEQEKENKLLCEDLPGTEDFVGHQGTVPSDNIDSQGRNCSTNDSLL
# Beta cell apopt = blocks beta cell apoptosis | actives 0.8% (n = 300,000) | protection from apoptosis, % (no concentration beside the values) | INS-1E cytokine-induced death, ATP luminescence, 48 h; percent of positive-control rescue, neutral wells zero;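 active means all replicates at 75% or more, or half of them and the mean; inconclusive means half reach 75% but not the mean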;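 further: 0% = cytokine-treated negative control wells and 100% = positive control rescue; higher means more ATP so stronger rescue from cytokine killing; wells of about 40 µL received 100 nL stock; the first replicate is given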
# rRNA inh HTS = inhibitors of bacterial rRNA selective over humanized ribosomes; E. coli WT GFP vs humanized-ribosome RFP mutants, fluorescence, 24 h; active compounds read low; DMSO median 0, no signal -100; GFP signal change (wild-type ribosome), % (concentration not given with the values); actives 1.6% (n = 350,000); AID 720706;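 active means significant combined selectivity score with lowered wild-type GFP, culture density cut under 30%, mutant RFP and density less affected; inactive means any of these conditions unmet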; further: one replicate is shown; some compounds called inactive have numbers as strong as hits
# Calb FLC = affects C. albicans growth with fluconazole. AID 1979. C. albicans CaCi-2 (fluconazole-resistant clinical isolate) + fluconazole, Alamar Blue growth, 48 h. growth inhibition, % (concentration not given with the values). actives 0.57% (n = 300,000);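 active means most replicates above 75%; inconclusive means exactly half above 75%; inactive means most below 75%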;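 further: all wells also contain fluconazole at 8 µg/ml as a sub-toxic cotreatment; 0% = median of DMSO wells and 100% = median of geldanamycin control wells; wells of about 8 µL received 7.5 nL stock; the first replicate is given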
# ALR inh = human ALR oxidase inhibition via reduced H2O2 | P55789 | purified ALR, DTT oxidation, H2O2 HRP-luminol luminescence | inhibition, % (concentration not given with the values) | actives 3.8% (n = 290,000) | AID 485317;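 active means mean and each replicate at 75% or more; inconclusive means only one of the two met; inactive means neither met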;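 further: stock transfer was 7.5 nL into about 7.5 µL; 0% = neutral wells and 100% = wells with inactivated enzyme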
# Target sequence (P55789 whole entry, looked up): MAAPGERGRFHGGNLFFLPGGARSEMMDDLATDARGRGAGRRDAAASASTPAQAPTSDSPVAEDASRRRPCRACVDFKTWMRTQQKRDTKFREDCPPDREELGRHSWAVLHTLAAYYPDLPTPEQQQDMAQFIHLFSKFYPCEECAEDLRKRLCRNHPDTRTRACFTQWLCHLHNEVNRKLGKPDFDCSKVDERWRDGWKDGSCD
# T cruzi inh = blocks replication of Trypanosoma cruzi; actives 1.4% (n = 300,000); inhibition, % (concentration not given with the values); T. cruzi beta-gal in NIH3T3, luminescence, 90 h;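 active means mean inhibition across valid replicates above about 55%, limit read from the data; inconclusive means mean below that limit but half or more replicates reach it; inactive means mean below it, under half of replicates reach it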;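 further: signal also drops with host cell toxicity which is not excluded here; 0% = plate median of DMSO wells and 100% = zero luminescence signal; higher percent means less beta-gal luminescence so fewer parasites; stock transfer was 50 nL into about 50 µL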
# rRNA inh HTS OD600 = recorded beside rRNA inh HTS, whose call it bears; OD600 change, %; measured here: OD600 growth;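 optical density of the mix in the first replicate; 0 = DMSO median and -100 = no signal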
# rRNA inh HTS RFP = also measured in rRNA inh HTS; calls as there; RFP signal change, %; measured here: RFP humanized mutant strains;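 first replicate; 0 = DMSO median and -100 = no signal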
# * = called active by the depositor; u = inconclusive; x = no result given; & = joins results of further samples. A portion of the library, so the mix of outcomes need not match the whole.
SMILES,Bfl-1 A1 inh,LANA-H2A inh,Beta2AR agonist,Beta cell apopt,rRNA inh HTS,rRNA inh HTS OD600,rRNA inh HTS RFP,Calb FLC,ALR inh,T cruzi inh
C/C(N)=C(/C#N)C(=O)CSc1nnc(Nc2cccc(C)c2C)s1,1.0,-1.9,3&1,-5,-8,-10,6.7,7,-11,9
O=C(N[C@@H](Cc1ccc(Br)cc1)C(=O)O)OCC1c2ccccc2-c2ccccc21,-0.4,-0.2,2,5,-1,7,-7.0,15,8,-7
Cc1cc(C)c(C)c(S(=O)(=O)N2CCN(C(=O)c3ccc4c(=O)n5c(nc4c3)CCC5)CC2)c1C,-0.4,-3.5,0,1,9,10,-1.0,25,-2,-5
O=S(=O)(NCCOC12CC3CC(CC(C3)C1)C2)c1cccc2nsnc12,0.5,1.3,-1,6,x,x,x,-5,-4,15
O=C(C1=C[C@@H]2[C@H]3C(=O)N(c4ccc(Cl)cc4)C(=O)[C@H]3[C@@H](C(=O)c3ccc(Cl)cc3)N2C=C1)c1ccccc1,-0.2,-3.5,0,-5,-3,-6,-3.5,u,-15,-11
CN1CCN(c2ccc(C(=O)c3ccc(F)cc3)cc2)CC1,-2.0,-2.4,-5,-4,x,x,x,4,-24,44
CCCCN(CCCC)CCNC(=O)CN1C(=O)CSc2ccc(S(=O)(=O)N3CCCCC3)cc21,0.1,7.5,-2,1,0,-4,2.2,7,-44,32
COC(=O)c1ccc(C(=O)N2CCCC(Nc3ccc(C(C)C)cc3)C2)cc1 (stereo unspecified),-1.7,-4.4,12,-2,-12,-20,-5.4,7,98*,4
C=CCn1c(SCC(C)=O)nc2scc(-c3ccc(C)o3)c2c1=O,0.2,-0.4,12,15,17,9,3.7,-2,96*,8
O=S(=O)(c1ccc(Cl)nc1)N1CCC(Cc2ccccc2)CC1,-0.7,-3.4,18,-2,3,7,-0.6,x,99*,x
OC(c1ccccn1)c1c[nH]c2ccccc12 (stereo unspecified),-0.1,1.6,1,-2,x,x,x,12,u,-5
CCCCN(C(=O)c1ccc(Cl)c([N+](=O)[O-])c1)c1c(N)n(CCC)c(=O)[nH]c1=O,1.0,-0.1,1,-12,7,9,-0.6,1,-6,14
C[C@@H]1NC(=O)[C@H](CCC(N)=O)NC(=O)c2cc([N+](=O)[O-])cc(I)c2NCCC[C@@H](C(N)=O)NC1=O,-0.9,-2.6,7,0,18,4,4.6,x,-10,x
Cn1cc(C(=O)C(=O)N2CCCc3ccccc32)c2ccccc21,1.0,-0.4,-12,-1,10,5,1.2,8,8,-2
CC(C)OCCCN(C)C1CCN(S(=O)(=O)c2ccc(-c3ccc(=O)[nH]n3)s2)CC1,-1.6,5.2,3,1,-2,7,-11,12,-4,45
N#Cc1ccccc1OCCn1cncn1,-0.3,5.9,8,-5,14,9,-1.0,-15,-18,-6
COc1ccc(C2/C(=C(\O)c3ccc(OC)c(Cl)c3)C(=O)C(=O)N2CCN(C)C)cc1 (stereo unspecified),0.8,-3.0,0,-3,x,x,x,-2,4,-2
CC(=O)N1CCN(Cc2nc(-c3cccc(Cl)c3)no2)CC1,-0.8,-4.1,1,-1,9,0,-6.6,4,-2,4
O=C(c1ccc(S(=O)(=O)NCc2ccco2)cc1)N1CCN(Cc2ccccc2)CC1,-0.4,8.1,2,3,4,0,1.2,-4,-12,-15
COCCN1C(=O)c2ccc(C(=O)Nc3nccs3)cc2C1=O,-1.5,-0.4,-7,-5,x,x,x,-1,0,10
CC1Cc2ccccc2N1S(=O)(=O)c1cccc(C(=O)NNC(=O)c2ccccc2F)c1 (stereo unspecified),1.3,-0.3,-7,0,-12,-17,6.4,x,2,x
COC(=O)c1sc2nc(-c3ccccc3)c3c(c2c1N)CCCC3,-0.1,2.6,24,-4,x,x,x,6,3,9
O=C1[C@H]2[C@@H](c3ccc(F)cc3)N3C(=O)N(c4cccc(Br)c4)C(=O)[C@@]3(Cc3ccccc3)[C@H]2C(=O)N1C1CCCCC1,-1.2,7.6,1,21,9,5,-0.8,-7,-6,40
CC(C)C[C@H](NC(=O)OC(C)(C)C)c1nnc(SCc2cccc(F)c2)o1,-0.6,4.5,6,1,x,x,x,-20,-29,31
COc1ccc(OCCNC(=O)/C=C/c2ccc([N+](=O)[O-])cc2)cc1,1.3,1.2,3,0,0,5,-0.4,-31,-9,5
CCOc1nc(C)cc(C)c1S(=O)(=O)c1ccc(Cl)cc1,0.9,-2.7,2,2,2,5,-2.5,15,2,8
Nc1oc2ccccc2c(=O)c1C=O,0.9,-2.9,7,-1,x,x,x,4,-6,-25
Cc1ccc2oc(C(=O)NCCC3CCCCO3)c(C)c2c1 (stereo unspecified),-1.2,-19,-1,-13,-35,-55,-2.6,21,-3,7
Cn1c(SCc2n[nH]c(=S)n2-c2ccccc2)nnc1-c1ccccc1,-0.2,-0.9,-1,-4,1,8,-0.7,-1,37,-1
CC(C)N1CCC(N2CCN(Cc3ccc(-c4ccc(Cl)cc4)o3)CC2CCO)CC1 (stereo unspecified),1.1,0.1,8,2,-1,1,0.0,-44,15,30
CC(Oc1ccc2c(c1)oc(=O)c1ccccc12)C(=O)NCC1CCC(C(=O)O)CC1 (stereo unspecified),0.6,0.1,-1,-7,-1,7,-5.0,4,x,-20
COc1ccc(N2CC(NC(=O)N(C)CCC#N)CC2=O)cc1 (stereo unspecified),-0.5,-5.2,-2,-14,7,8,-0.4,1,-6,-4
CCn1c(COc2ccc(=O)n(-c3ccccc3)n2)nnc1SCc1ccc(C)cc1,0.3,1.8,-4,-7,x,x,x,4,-1,8
O=[N+]([O-])c1ccc(C(O)CN2CCN(Cc3ccccc3)CC2)cc1 (stereo unspecified),0.7,9.3,-1,-7,-3,14,-0.7,1,-2,49
COC(=O)c1cccnc1NC(=S)NC(C)C,0.0,0.8,0,x,12,9,-0.9,-7,-9,-26
COc1cc(OC)cc(C(=O)NNC(=O)CCc2ccccc2)c1,0.0,-0.4,1,-2,8,8,0.2,-5,-1,3
COC(=O)c1ccc(Oc2nc(NC(C)(C)C)nc(N3CCOCC3)n2)cc1,0.7,-0.5,x,-6,x,x,x,-1,2,19
CCCn1c(SCC(=O)Nc2c(C)cccc2C)nnc1C(C)C,2.6,-4.4,3,-2,x,x,x,4,-3,-5
C/C(Cn1nc([N+](=O)[O-])cc1C)=N\NC(=O)COc1ccc(Cl)cc1Cl,0.3,-4.5,-18,-1,x,x,x,-13,2,8
CC(=O)c1c(C)[nH]c(C(=O)N2CCc3ccccc32)c1C,0.0,1.0,8,-6,x,x,x,x,-5,2
CCOC(=O)Cn1c(=O)oc2cc(S(=O)(=O)N3CCCc4ccccc43)ccc21,0.3,-1.1,8,-1,-8,-21,-1.6,-1,-6,9
CCOC(=O)CSc1nnc(NC(=O)c2cccc(S(=O)(=O)N3CCCCC3)c2)s1,0.2,0.0,10,0,x,x,x,-1,-4,-6
N#CCc1nc(CSc2nc3ccccc3s2)cs1,0.4,0.3,-11,-9,-6,-2,-4.7,3,64,-10
CC1(C)c2[nH]c3ccccc3c2C[C@H]2C(=O)N(Cc3cccc(F)c3)C(=O)N21,0.8,-0.8,-3,6,-3,-7,-0.6,23,-4,15
CCCCCNC(=O)Cc1cc(=O)[nH]c(=O)[nH]1,0.5,-2.9,1,2,1,8,-1.7,4,x,1

# Quoted from the listing.
# C/C(Cn1nc([N+](=O)[O-])cc1C)=N\NC(=O)COc1ccc(Cl)cc1Cl in ALR inh has 2
# CCn1c(COc2ccc(=O)n(-c3ccccc3)n2)nnc1SCc1ccc(C)cc1 in Bfl-1 A1 inh has 0.3

# Remaining list, next part.
SMILES,Bfl-1 A1 inh,LANA-H2A inh,Beta2AR agonist,Beta cell apopt,rRNA inh HTS,rRNA inh HTS OD600,rRNA inh HTS RFP,Calb FLC,ALR inh,T cruzi inh
Nc1cccc(Nc2ccccc2)c1,-0.7,9.7,-6,x,11,5,3.0,9,99*,12
CCC(CO)Oc1cc(NC(=O)c2cccc3ccccc23)c2ncn(C(C)C)c2c1 (stereo unspecified),-0.2,-2.6,12,4,-24,-10,13,x,-21,x
Cc1noc(C)c1COc1cccc(C(=O)NC(C)(C)C)c1,-0.9,-6.6,-4,2,8,0,2.3,-12,0,-2
CN(CC(=O)Nc1ccc(N2CCOCC2)cc1)C(=O)C1CCCC1,0.5,2.5,-1,x,13,10,1.3,-14,22,-10
Cc1cccc(NC(=O)/C(C#N)=C/c2ccc(Cl)cc2)n1,-0.7,5.0,-1,-7,-15,-18,1.0,0,19,4
O=C(OCCN1C(=O)c2ccccc2C1=O)c1cc2ccccc2o1,0.1,1.4,3,-5,-3,0,-6.4,-17,-3,-5
Cc1ccc(-c2cc(=O)c3cc(C)ccc3[nH]2)cc1,-4.0,-2.5,-3,10,-5,-12,-13,-17,5,-6
O=C(NCCSCc1ccccc1)c1cc(S(=O)(=O)N2CCOCC2)ccc1F,-0.8,5.3,-9,4,x,x,x,-6,-14,-3
O=S(=O)(Nc1ccc(N2CCCCC2)cc1)c1cccs1,-0.2,-11,-9,12,x,x,x,-20,64,24
COc1ccc(C(C)(C)C)cc1NC(=O)C1CC=CCC1C(=O)O (stereo unspecified),0.5,-1.7,3,-7,x,x,x,-3,-4,15
NS(=O)(=O)c1ccc(CCNC(=O)COC(=O)C2CCC2)cc1,-0.2,4.0,-1,-3,-18,-23,4.2,26,-1,7
O=C(Nc1nccs1)c1cccnc1,1.0,-13,-6,-6,13,14,-2.6,-8,-3,-15
O=C(NC1CCCCC1)c1cc(C(=O)c2ccccc2Br)c[nH]1,3.2,4.1,-3,9,3,5,-12,-18,-7,-21
CN1c2ccc([N+](=O)[O-])cc2N(C)C1(C)c1ccccc1 (stereo unspecified),-0.3,-3.9,6,10,-1,-2,3.4,1,99*,57*
Cc1ccc2cc(C3CC(c4ccco4)=NN3S(=O)(=O)c3ccccc3)c(Cl)nc2c1 (stereo unspecified),-0.6,1.7,3,0,16,11,9.6,0,-1,24
COc1ccc(/C=N/NS(=O)(=O)c2ccc(F)cc2)cc1COc1cc(F)ccc1[N+](=O)[O-],0.6,-2.4,-8,5,2,-5,1.5,27,-2,59*
CCCCCCNC(=O)Cc1ccc(Br)cc1,1.6,2.5,3,0,-29,-34,-3.6,-9,-4,6
CC1(C)C(=O)NCCN1C(=O)CSc1nccc(-c2ccc(Br)cc2)n1,-0.5,-3.9,7,-2,x,x,x,8,9,4
COc1cccc(NC(=O)C2CCCN(c3ncnc4c3nc3n4CCCCC3)C2)c1 (stereo unspecified),-0.3,-4.5,-5,2,-28,-30,-2.8,3,4,6
O=C(CCc1nc2ccccc2c(=O)[nH]1)OCC(=O)c1cccc(Cl)c1,0.5,-2.7,9,-4,x,x,x,8,-5,-8

# Compound activity (PubChem)
